RN4220 kill = S. aureus RN4220 growth inhibition. 330,000 compounds, 0.33% hits. inhibition, % (concentration not given with the values). OD600, 16 h;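 active means z-score of -3 or lower and OD600 up to 0.18 on both plates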;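 further: plate controls were untreated cells for no effect and reference antibiotic for full effect; stock transfer was 100 nL into about 80 µL; one replicate is shown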
ugtP null kill = kills S. aureus RN4220 lacking UgtP | S. aureus RN4220 ugtP deletion, OD600 growth, 16 h; some inactives read as strong as hits | growth inhibition, % (concentration not given with the values) | 330,000 compounds, 0.54% hits | AID 1259309;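 active means z-score under -3 and OD600 up to 0.15 on both plates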;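 further: plate controls were untreated wells for no effect and antibiotic for full effect; wells of about 80 µL received 100 nL stock; the first replicate is given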
PrP UTR inh = inhibition of PrP 5' UTR reporter expression. inhibition, % (no concentration beside the values). 340,000 compounds, 0.35% hits. cell-based PrP 5' UTR mRNA reporter, plate reader;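 active means every replicate at 50% or more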;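 further: 0 = median of the neutral control wells; tested in H4 reporter cells; numbers are from one replicate; inactives centre near -14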
BJeLR viability = BJeLR cell viability loss | 300,000 compounds, 0.17% hits | inhibition, % (test concentration not listed) | BJeLR (HRASV12) viability, CellTiter-Glo ATP luminescence, 48 h; reference of the scale not given here;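 active means replicate mean above 50%; inconclusive means above 50% but judged a plate artefact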;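 further: 50 nL library stock added to about 25 µL; numbers are from one replicate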
Bead autofluor = compound fluorescence in toxin protease inhibitor counterscreen | compound autofluorescence counterscreen, microsphere flow cytometry; active compounds read high | fluorescence intensity (concentration not given with the values) | 360,000 compounds, 3.1% hits;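 active means at least 3 SD above the mean of all compounds, about 16000 in these data; inconclusive means too few beads counted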;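 further: 100 nL of 1 mM stock went into each well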
Mtb hypoxia rep = reduces hypoxia-regulated biosensor signal in M. tuberculosis. M. tuberculosis hypoxia-regulated fluorescent reporter, fluorescence. fluorescence inhibition, % (concentration not given with the values). 300,000 compounds, 0.1% hits;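 active means 35 to 45% if threefold the growth effect, above 45% if 1.5-fold the growth effect; inactive means the rest, general growth blockers included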;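 further: wells of about 50 µL received 100 nL stock; 0% = vehicle wells and 100% = reference inhibitor wells; whole bacteria with a GFP reporter of the hypoxia response; strong numbers were not always called active; many hits fall short of the cut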
Mtb hypoxia rep growth = further read-out of Mtb hypoxia rep, marked with its call; growth inhibition, %; measured here: M. tuberculosis growth (absorbance);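 0% = vehicle and 100% = reference antibiotic; read after six days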
* hit, by the source's call; u = inconclusive; x = not tested or not shown.

The first 3 entries as a preview:
SMILES	RN4220 kill	ugtP null kill	PrP UTR inh	BJeLR viability	Bead autofluor	Mtb hypoxia rep	Mtb hypoxia rep growth
CCOC(=O)C1C2C=CC3(CN(C4CCCC4)C(=O)C13)O2 (stereo not drawn)	-1.0	5	-10	-4	4539	2	-2
CC1(C)CC[C@]2(C(=O)O)CC[C@]3(C)C(=CCC4[C@@]5(C)CC[C@H](O)C(C)(C)C5CC[C@]43C)C2C1 (stereo partly drawn)	x	x	-1	-10	3847	x	x
Cc1ccc(-c2ccc3nnc(SCC(N)=O)n3n2)cc1	5.2	9	-23	4	4499	10	19

The whole of this part (from the top)
SMILES	RN4220 kill	ugtP null kill	PrP UTR inh	BJeLR viability	Bead autofluor	Mtb hypoxia rep	Mtb hypoxia rep growth
CCOC(=O)C1C2C=CC3(CN(C4CCCC4)C(=O)C13)O2 (stereo not drawn)	-1.0	5	-10	-4	4539	2	-2
CC1(C)CC[C@]2(C(=O)O)CC[C@]3(C)C(=CCC4[C@@]5(C)CC[C@H](O)C(C)(C)C5CC[C@]43C)C2C1 (stereo partly drawn)	x	x	-1	-10	3847	x	x
Cc1ccc(-c2ccc3nnc(SCC(N)=O)n3n2)cc1	5.2	9	-23	4	4499	10	19
CSc1nnc2c3cc(F)ccc3n(C)c2n1	4.6	2	-17	-10	3888	9	0
Cc1cc(C)c(C2=NOC3C4CCC(C4)C23)c(C)c1 (stereo not drawn)	1.2	9	-16	6	2170	17	11
COC(=O)C(O)(CC(=O)Nc1ccc(OC)cc1)C(F)(F)F (stereo not drawn)	4.0	-1	-18	6	3549	11	7
Cc1cc(C(=O)NC2CCCCC2)c(C)o1	x	x	5	-7	u	x	x
CCOC(=O)N1CCN(S(=O)(=O)c2ccc(C(=O)N(CCCN(C)C)c3nc4c(F)cc(F)cc4s3)cc2)CC1	3.6	-7	-33	3	7349	12	6
COC(=O)C(C(C)C)N1CCc2c(C)nc3c(C#N)cnn3c21 (stereo not drawn)	4.7	3	-34	0	4328	4	-4
O=C(COc1ccc(-c2nnco2)cc1)Nc1ccc(F)c(Cl)c1	-11	-5	-48	x	4012	16	-1
CCOC(=O)Cc1nnc(NC(=O)Nc2ccccc2)s1	-0.1	7	-13	3	4184	x	x
O=c1[nH]n(Cc2ccccc2)c(=O)c2ccccc12	4.3	2	-20	-5	7836	4	5
O=C(NCc1ccc2c(c1)OCO2)c1cc(-n2cnnc2)ccc1Cl	-0.4	1	-16	-3	19482*	9	-1
COc1ccccc1N(C)S(=O)(=O)c1ccc(Cl)c(C(=O)NCc2ccco2)c1	1.9	0	-17	x	3969	-8	-9
CCCCN1CCN=C1Nc1ccccc1	6.4	-3	-18	-7	4005	7	8
COc1ccc(N(CC(=O)O)S(=O)(=O)c2ccc(C)cc2)cc1Cl	3.7	2	-11	x	3695	-4	-6
NC(=O)C1CCCNc2c(F)cc([N+](=O)[O-])cc2C(=O)NC(CCC(=O)O)C(=O)NC(CO)C(=O)N1 (stereo not drawn)	1.9	-2	x	x	x	4	5
Cc1cc2ccccc2n1CCNC(=O)C1CCCCC1	-9.8	-8	-21	-4	2400	5	15
O=C(CSc1ccc2nnc(CCNC(=O)c3ccccc3)n2n1)Nc1ccc(F)cc1F	3.2	-2	-9	8	5364	9	8
O=C(N/N=C/c1cccc(NC(=O)c2ccc(Cl)cc2)c1)c1cccc(O)c1	x	x	-23	-5	4524	x	x
Cc1ccccc1OCC(=O)OCC(=O)NCc1ccccc1Cl	1.3	-2	-11	x	3992	0	12
NC(=S)NN=C1CCSc2ccc3ccccc3c21	3.6	-2	x	x	x	10	4
COc1cccc(NC(=O)CN2C(=O)c3cccnc3Oc3ccc(Cl)cc32)c1	-0.6	1	-11	-4	5969	x	x
CN1C2CCC1CC(NC(=O)c1ccc(Cl)cc1)C2 (stereo not drawn)	4.9	1	-8	-8	4548	9	-4

Reformatted bar-delimited: 6 of the compounds above
molecule | RN4220 kill | ugtP null kill | PrP UTR inh | BJeLR viability | Bead autofluor | Mtb hypoxia rep | Mtb hypoxia rep growth
COc1ccccc1N(C)S(=O)(=O)c1ccc(Cl)c(C(=O)NCc2ccco2)c1 | 1.9 | 0 | -17 | x | 3969 | -8 | -9
CCCCN1CCN=C1Nc1ccccc1 | 6.4 | -3 | -18 | -7 | 4005 | 7 | 8
COc1ccc(N(CC(=O)O)S(=O)(=O)c2ccc(C)cc2)cc1Cl | 3.7 | 2 | -11 | x | 3695 | -4 | -6
NC(=O)C1CCCNc2c(F)cc([N+](=O)[O-])cc2C(=O)NC(CCC(=O)O)C(=O)NC(CO)C(=O)N1 (stereo not drawn) | 1.9 | -2 | x | x | x | 4 | 5
Cc1cc2ccccc2n1CCNC(=O)C1CCCCC1 | -9.8 | -8 | -21 | -4 | 2400 | 5 | 15
O=C(CSc1ccc2nnc(CCNC(=O)c3ccccc3)n2n1)Nc1ccc(F)cc1F | 3.2 | -2 | -9 | 8 | 5364 | 9 | 8

4 compounds picked at random from the list so far, as already listed:
SMILES	RN4220 kill	ugtP null kill	PrP UTR inh	BJeLR viability	Bead autofluor	Mtb hypoxia rep	Mtb hypoxia rep growth
O=C(CSc1ccc2nnc(CCNC(=O)c3ccccc3)n2n1)Nc1ccc(F)cc1F	3.2	-2	-9	8	5364	9	8
CC1(C)CC[C@]2(C(=O)O)CC[C@]3(C)C(=CCC4[C@@]5(C)CC[C@H](O)C(C)(C)C5CC[C@]43C)C2C1 (stereo partly drawn)	x	x	-1	-10	3847	x	x
O=C(COc1ccc(-c2nnco2)cc1)Nc1ccc(F)c(Cl)c1	-11	-5	-48	x	4012	16	-1
Cc1ccc(-c2ccc3nnc(SCC(N)=O)n3n2)cc1	5.2	9	-23	4	4499	10	19

Next compounds.
SMILES	RN4220 kill	ugtP null kill	PrP UTR inh	BJeLR viability	Bead autofluor	Mtb hypoxia rep	Mtb hypoxia rep growth
C=CCNC(=O)C1CCC(CNc2nc(=S)[nH]c3ccccc23)CC1 (stereo not drawn)	3.4	3	-2	0	4114	14	1
C=CCN1C(=O)/C(=C2/Sc3ccccc3N2CC)SC1=S	2.2	-1	-10	-7	3721	-7	6
CCCn1c(SCC(=O)NC(=O)NCc2ccccc2)n[nH]c1=O	1.7	-1	-23	x	4098	9	3
Nc1nc(SCC(=O)Nc2ccc(Br)cc2F)n[nH]1	-3.7	2	-29	-1	2436	x	x
Cc1nn2c(-c3ccc(Cl)cc3)nnc2s1	1.1	1	-21	0	23339*	-4	-1
c1ccc(CCNc2ccc3c(c2)Cc2ccccc2-3)nc1	2.2	1	-65	x	4214	10	9
Cc1sc2ncnc(N3CCN(S(=O)(=O)c4ccc(C(C)(C)C)cc4)CC3)c2c1C	-1.3	-6	-2	x	2856	7	4
Cc1cccc(NC(=O)NCC(c2cccnc2)N2CCOCC2)c1 (stereo not drawn)	1.5	0	-14	0	4305	0	6
O=C(CNC(=O)c1ccco1)NN=Cc1cccs1	1.0	1	x	x	x	-2	19
O=C(Nn1c(=S)[nH]c2ccccc2c1=O)c1ccncc1	6.0	3	-17	-12	2484	2	-3
O=C(Nc1ccncc1)Nc1ccc(F)cc1F	3.4	1	-31	7	23331*	3	-2
CCC(C)NC(=O)c1n[nH]c(=O)c2ccccc12 (stereo not drawn)	0.3	3	-6	-5	4258	7	-1
CCOc1ccc(S(=O)(=O)NCCC(=O)NC2CCCCC2)cc1	-2.2	-6	2	-2	6433	-4	-6
Clc1ccc(CN2CCN(/N=C/c3cccnc3)CC2)cc1	x	x	-14	3	4757	x	x
COC(=O)c1sccc1NC(=O)c1ccc(C)cc1	5.5	6	-11	-5	3114	-4	-2
Cc1ccc(-c2nn3nnnc3c3ccccc23)cc1C	0.3	-10	-12	-5	6198	-5	-10
COC(=O)c1c(C(=O)OC)c(-c2ccc(C)cc2)n2c1CS(=O)C2 (stereo not drawn)	-11	-7	-48	-5	2905	13	10
COC(=O)C1=C(c2cc3ccccc3s2)C[C@@H]2CC[C@H]1N2C(=O)N1CCCC1	x	x	-21	4	4393	x	x
Cc1ccc(S(=O)(=O)Oc2ccc(C3C4=C(CCCC4=O)OC4=C3C(=O)CCC4)cc2)cc1	-0.4	-6	-7	8	3536	10	3
Cc1ccc(-c2nnn(CC(=O)N(Cc3cccs3)C(C(=O)NC3CCCC3)c3ccco3)n2)o1 (stereo not drawn)	8.0	15	2	0	16932*	7	9
CCCCCCSc1ccc(C2N[C@@](Cc3ccccc3)(C(=O)OC)C3C(=O)N(CC)C(=O)C23)cc1 (stereo partly drawn)	0.9	2	x	x	x	4	9
CN(C(=O)c1ccc(NC(=O)Cc2cccc(NC(=O)C3CCN(C(=O)CCc4ccccc4)CC3)c2)cc1)C1CCCC1	5.5	10	-14	x	2984	-4	-2
CCOC(=O)c1cnc(SCc2cccc3ccccc23)nc1N	7.2	10	-23	-1	5854	1	4
COc1ccc(/C=C/C(=O)NCc2cnn(C)c2C)cc1COc1ccc(Br)cc1	1.4	14	4	0	23817*	-9	6
CCc1ccc(CCC(=O)Nc2ccc(S(N)(=O)=O)cc2)o1	5.9	1	-1	-8	7896	6	8
CC1CN(c2nc(Nc3ccccc3)nc(N)c2[N+](=O)[O-])CC(C)O1 (stereo not drawn)	4.9	5	-27	4	3899	9	6
Cc1ccnc(NS(=O)(=O)c2ccc(NC(=O)c3ccc(S(=O)(=O)N4CCOCC4)cc3)cc2)n1	4.8	1	-11	1	2189	24	24
CC(C)C(C(=O)NCC1CCCO1)N(Cc1cccs1)C(=O)CNS(=O)(=O)c1ccccc1 (stereo not drawn)	1.0	-3	-12	-8	4469	-1	-1
CC(=NNC(=O)c1cc(O)ccc1O)c1cccc(NC(=O)c2cccc(Cl)c2)c1	5.8	19	x	x	x	7	0
CCOC(=O)C(=NNc1ccc(Br)cc1)N1CCN(c2ccccc2OC)CC1	-3.2	4	x	x	x	1	0
O=C(CNC(=O)c1ccccc1)Nc1cccc(C(F)(F)F)c1	2.2	-2	-6	2	2074	-2	17
CN(c1ccc([N+](=O)[O-])cc1C(N)=O)C1CCCCC1	2.6	13	-19	-2	4223	13	11
CCN1CCCC1CNC(=O)CN1C(=O)COc2ccc(C)cc21 (stereo not drawn)	7.1	10	0	-7	5489	-6	4
C[C@@H](C(=O)NCc1ccccc1)N1C(=O)C2CC=CCC2C1=O (stereo partly drawn)	0.7	2	-14	-15	2054	x	x
COc1cc(S(=O)(=O)N2CCN(c3ccccc3)CC2)ccc1F	12	4	-10	3	5596	7	6
CN(Cc1ccccc1)CC(O)COc1ccc(CNCc2cc3ccccc3s2)cc1 (stereo not drawn)	-0.5	-2	-16	7	3800	13	3
COc1ccc(N(C(=O)c2snc(C(N)=O)c2N)C(C(=O)NCc2ccccc2)c2ccc(O)cc2)cc1 (stereo not drawn)	1.1	1	-25	-13	3686	14	8
Cn1ncc(C#N)c1N=CN1CCCC1	1.1	-2	x	x	x	1	5
O=C(Nc1ccc(NC(=O)c2ccccc2F)cn1)c1ccco1	1.0	1	7	13	3647	-1	7
NC12CN3CN(CN(C3)C1)C2 (tested in a mixture with another compound)	4.0	1	-29	4	7551	15	9
CCCCC(c1nnnn1C1CCCC1)N1CCN(C(=O)c2ccco2)CC1 (stereo not drawn)	-2.2	3	-17	1	3798	x	x
CC1(C)CC2CC(C)(CN2S(=O)(=O)c2cccc(N)c2)C1 (stereo not drawn)	5.9	11	-9	0	4595	7	10
Nc1nncn1C(=O)CCc1ccccc1	1.4	-2	-7	3	22172*	-3	3
CCCCC(=O)Nc1cccc(C(C)O)c1 (stereo not drawn)	-3.0	-3	x	1	x	-2	8
Cc1sc2ccccc2[n+]1CC(=O)O	4.5	8	-20	-10	5621	11	4
COc1ccccc1C=NNc1cc(N(C)C)nc(N(C)C)n1	9.4	0	x	x	x	-19	-45

Assay outcomes as filed in PubChem.
